# Anaer choline gr: blocks anaerobic gram-negative growth on choline | Gram-negative bacterium anaerobic choline minimal medium, absorbance growth; active compounds read low; many inactives read as strong as hits in the columns shown | 55,000 compounds, 0.2% hits | calls only | AID 1963822;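 active means growth z-score on choline under -2 at 7 or 20 h with little or no fall on glycerol, limits in tiers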;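 further: stock transfer was 300 nL into about 50 µL; the organism is E. coli; final concentration not given here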
# Anaer choline gr early: recorded beside Anaer choline gr, whose call it bears; z-score; measured here: choline growth z-score, timepoint 1;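 score of optical density at 7 h as mean of two plates; lower means less growth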
# * = called active by the depositor; i = inactive; & = joins results of further samples. Only part of the results is shown; count on the stated rates, not on these rows.
canonical_smiles | Anaer choline gr | Anaer choline gr early
CC(=O)NC(C)(C)C(=O)N1CCC[C@H]1C(=O)NC(C)(C)C(=O)N[C@@H](C)C(=O)NC(C)(C)C(=O)N[C@@H](C)C(=O)N[C@@H](CCC(N)=O)C(=O)NC(C)(C)C(=O)N[C@H](C(=O)NC(C)(C)C(=O)NCC(=O)N[C@@H](CC(C)C)C(=O)NC(C)(C)C(=O)N1CCC[C@H]1C(=O)N[C@H](C(=O)NC(C)(C)C(=O)NC(C)(C)C(=O)N[C@@H](CCC(=O)O)C(=O)N[C@@H](CCC(N)=O)C(=O)N[C@H](CO)Cc1ccccc1)C(C)C)C(C)C | i | 0.59
Cc1cccc(C(=O)N2CCN(c3nc4cc(Br)ccc4n4cccc34)CC2)c1 | i | 0.06
O=C(NCc1ccccc1Br)C1CCN(c2nc3ccccc3nc2C(F)(F)F)CC1 | i | 0.88
CCCCCCCNS(=O)(=O)c1cccc2c(Cl)cccc12 | i | 0.92
CCOc1ccc(N2C(=O)CN(C(C)CC)[C@H]3CS(=O)(=O)C[C@H]32)cc1 (stereo not given in full) | i | -1
COc1ccccc1NC(=O)Cn1c(=O)n(CCCCC(=O)NC(C)C)c(=O)c2ccccc21 | i | 0.35
COc1ccc(Oc2cc3c(cc2NS(=O)(=O)c2cc(OC)ccc2OC)n(C)c(=O)n3C)cc1 | i | -0.32
C=CCNC(=O)CSc1nc2c(cnn2-c2ccc(Cl)cc2)c(=O)[nH]1 | i | -0.29
CC1(C)CC(=O)C2=C(C1)Nc1n[nH]c(-c3ccccc3)c1C2c1ccccc1Cl (stereo not given) | i | -1.6
Cc1cc(C)nc(NC(c2ccccn2)c2c(NC(=O)c3ccccc3)sc(C)c2C)n1 (stereo not given) | i | -0.98
O=C(Cn1c(=O)n2nc(-c3ccc(F)cc3)nc2c2ccccc21)N1CCN(c2ccccc2F)CC1 | i | -0.48
CCCCc1nc2c3ccccc3n(C(C)C(=O)c3ccc(C)c(C)c3)c(=O)n2n1 (stereo not given) | i | 1.8
CCS(=O)(=O)N1CCCN(C2=NS(=O)(=O)C(c3ccc(C)c(C)c3)=C2C)CC1 | i | 0.14
Cc1cccc(-c2noc(-c3nnn(Cc4nc(-c5cccc(Cl)c5)oc4C)c3C)n2)c1 | i | -1.3
O=C(Nc1ccc(F)cc1F)N1CCC(N2CCN(Cc3ccc(F)cc3)C(=O)C2=O)CC1 | i | -0.66

canonical_smiles | Anaer choline gr | Anaer choline gr early
CCC(C)NC(=O)c1nn2c(C)cc(C)nc2c1-c1ccc(OC)c(S(=O)(=O)N2CCCC2)c1 (stereo not given) | i | -0.78
O=C(NCc1ccc(F)cc1)c1ccc(-c2cnc(NC3CCCCC3)nc2)cc1 | i | 0.58
O=C(C1CCCCC1)N1CCCC1c1nc2ccccc2s1 (stereo not given) | i | -0.01
c1cc(-c2cc(N3CCSCC3)n[nH]2)ccn1 | i | -0.32
Cc1cc(-c2c(C)sc(C)c2S(=O)(=O)N2CC=C(c3ccccc3)CC2)on1 | i | 1.1
CCOC(=O)C1=C[C@]2(CC)CCCN3CCc4c(n1c1ccccc41)[C@@H]32 | i | 0.67&0.68&-0.22&-1.1&0.42
c1ccc(-c2nc(Cn3ccnc3)no2)cc1 | i | -1.4
COC(=O)c1c(-c2cccc(Cl)c2)noc1NC1CC1 | i | -0.68
O=C(NCCn1c(-c2ccc(F)cc2)nc2cccnc21)NC1CCCCC1 | i | 0.01
CN1CCC(=C2c3ccccc3Sc3ccccc32)CC1 | i | 0.37
CCOC(=O)C1CCN(C(=O)c2cc(-c3ccncc3)n[nH]2)CC1 | i | -0.78
CCC(C)NC(=O)C1CCN(Cc2cn(C)c3ccc(OC)cc23)CC1 (stereo not given) | i | -0.03
O=c1[nH]c(SCc2nc(-c3ccccc3)no2)nc2c(-c3ccccc3)c[nH]c12 | i | 1.3
O=C(NC1CCCC1)N1CCCC1c1ccc(Cl)cc1 (stereo not given) | i | -0.12
O=C(O)CN1C(=O)COc2cc(Cl)ccc21 | i | 0.63

canonical_smiles | Anaer choline gr | Anaer choline gr early
O=C(CCn1cnc2c(-c3ccccc3)noc2c1=O)NC1CCS(=O)(=O)C1 (stereo not given) | i | 0
Cc1nn(-c2ccc3nnc(C)n3n2)c(C)c1CCC(=O)Nc1ccccc1 | i | 1.2
O=c1c2nnc(SCc3ccc(Cl)cc3)n2ccn1-c1cccc(F)c1 | i | 0.34
Cc1ccc(CN2CCN(C3CCN(S(=O)(=O)c4ccc(C(C)C)cc4)CC3)C(=O)C2=O)cc1 | i | 1.2
COC(=O)c1ccc(NC(=O)NCc2nnc(C(=O)Nc3ccccc3)s2)cc1 | i | -0.42
Cc1sc2ncc(C(=O)NC3CCCC3)c(=O)n2c1C | i | -0.01
CC1(C)C[C@@H]1C(=O)N/C(=C\CCCCSC[C@@H](N)C(=O)O)C(=O)O | i | 0.25
O=C(CCC(=O)N1Cc2ccccc2Oc2ncccc21)NCc1ccccc1F | i | -1.4
CC1CSc2ccc(S(=O)(=O)N3CCOCC3)cc2N(CC(=O)NC2CCCCC2)C1=O (stereo not given) | i | -0.43
CCCn1cnc2c(-c3ccc(F)cc3)csc2c1=O | i | -0.23
Cc1ccc(-c2csc(Cc3nc(-c4ccc5c(c4)OCO5)no3)n2)cc1C | i | 1.1
Clc1ccccc1-c1csc(Nc2ccccn2)n1 | i | 0.09
c1cc(N2CCSCC2)ncc1-c1noc(CN2CCOCC2)n1 | i | -2.2
CCN(CC)C(=O)c1sc(-c2cc(S(=O)(=O)NC3CCCCC3)c(C)n2C)nc1C | i | -0.28
COCCn1c(SCc2nc(-c3cccc(F)c3)no2)nc2cc3c(cc2c1=O)OCO3 | i | 0.9

# 4 structures out of the list, sorted by molecular weight, high to low:
canonical_smiles | Anaer choline gr | Anaer choline gr early
Cc1ccc(CN2CCN(C3CCN(S(=O)(=O)c4ccc(C(C)C)cc4)CC3)C(=O)C2=O)cc1 | i | 1.2
CC1CSc2ccc(S(=O)(=O)N3CCOCC3)cc2N(CC(=O)NC2CCCCC2)C1=O (stereo not given) | i | -0.43
CCN(CC)C(=O)c1sc(-c2cc(S(=O)(=O)NC3CCCCC3)c(C)n2C)nc1C | i | -0.28
CC1(C)C[C@@H]1C(=O)N/C(=C\CCCCSC[C@@H](N)C(=O)O)C(=O)O | i | 0.25

# Next part.
canonical_smiles | Anaer choline gr | Anaer choline gr early
Cc1nc2nc(-c3ccc(C(C)(C)C)cc3)nn2c(C)c1CC(=O)N1CCc2ccccc2C1 | i | -0.19
CN(C)CCNC(=O)CCc1nc(CS(=O)(=O)c2ccccc2)no1 | i | -0.55
COc1cc(=O)n(-c2ccccc2C)nc1C(=O)Nc1ccccc1O | i | -1.1
CN1C(C(=O)Nc2ccccn2)=C(O)c2sc(Cl)cc2S1(=O)=O | i | -2.9
COc1ccc2nc(NC(=O)c3c(-c4ccc(Cl)cc4)nc4n3CCS4(=O)=O)sc2c1 | i | 0.7
O=C(Nc1ccc(Cl)cc1)C1CCCN(c2nc3cccnc3n(Cc3ccccc3)c2=O)C1 (stereo not given) | i | 0.48
CC[C@H]1OC(=O)[C@H](C)[C@@H](O[C@H]2C[C@@](C)(OC)[C@@H](O)[C@H](C)O2)[C@H](C)[C@@H](O[C@@H]2O[C@H](C)C[C@H](N(C)C)[C@H]2O)[C@](C)(O)C[C@@H](C)/C(=N/OCOCCOC)[C@H](C)[C@@H](O)[C@]1(C)O | i | -0.54
Cc1cc2n(n1)CCC(=O)N2CC(=O)NC1CCCC1 | i | 0.1
Cc1ccc(NC(=O)Nc2ncc(-c3ccccc3)n2C)cc1C | i | 1.9
CC1(C)[C@@H](OC(=O)CCC(=O)O)CC[C@]2(C)[C@H]3C(=O)C=C4[C@@H]5C[C@@](C)(C(=O)O)CC[C@]5(C)CC[C@@]4(C)[C@]3(C)CC[C@@H]12 | i | 0.62
CC(Oc1ccc(Br)cc1)c1nc(-c2ccccn2)no1 (stereo not given) | i | -0.92
Cc1ccc(CN2C(=O)CCC2C(=O)NCCCN2CCC(Cc3ccccc3)CC2)cc1 (stereo not given) | i | 1.3
Cc1ccc(C)c(CN2CCC(CNC(=O)NCc3ccccc3)CC2)c1 | i | 0.98
Cc1nc(N2CCCC2)ncc1C(=O)NCCCN1CCOCC1 | i | 0.6
O=C(CCc1nc(CSc2nnc(-c3ccncc3)o2)no1)Nc1ccc(F)cc1 | i | -0.71

canonical_smiles | Anaer choline gr | Anaer choline gr early
COc1cccc(-c2csc(-c3nnn(-c4ccc(C)c(C)c4)c3N)n2)c1 | i | 0.18
Cc1sc(-c2noc(C(C)C)n2)cc1S(=O)(=O)N1CCC(C(=O)NC2CCCCC2)CC1 | i | 1.1
O=C(Nc1ccc(F)c(-c2nnc(-c3ccccc3)o2)c1)Nc1ccccc1F | i | -0.55
CC1(C(=O)NC2CCCCC2)Cn2c(cc3ccsc32)C(=O)N1c1ccc(F)cc1 (stereo not given) | i | 0.59
COc1ccccc1NC(=O)Nc1cc(Cl)ccc1OCc1cc(=O)n2c(ncn2C(C)C)n1 | i | -0.93
COc1cccc(Nc2ncc3c(n2)CCN(Cc2ccccc2Cl)C3)c1 | i | 0.15
CC(CNC(=O)c1cc2sccc2n1C)c1ccccc1 (stereo not given) | i | 0.44
Cc1cc(C)c2c(n1)SCCN2C(=O)NCC(=O)NCC1CCCO1 (stereo not given) | i | 0.75
CC1(C)C(=O)N(CC(=O)Nc2ccc(F)c(Cl)c2)c2ccc(S(=O)(=O)N3CCCC3)cc21 | i | 0.95
Cc1nc(-c2cc(S(=O)(=O)N(C)C3CCCCC3)c(C)s2)sc1C | i | 1.7
Cc1cc(Cl)ccc1NC(=O)c1ccc(-n2nnc3cccnc32)cc1 | i | -1.3
Cc1ccc(C)c(NC(=O)Cn2nc3c4sc(N(C)C)nc4ncn3c2=O)c1 | i | -2.4
CCn1cnnc1C1CCCN(Cc2ccccc2C)C1 (stereo not given) | i | -0.21
Cc1ccc2c(c1)-c1c(cnc3cc(-c4ccc(F)cc4)nn13)CO2 | i | 0.36
C=CCNC(=O)c1sc(N(CC)CC)nc1N | i | -0.18

canonical_smiles | Anaer choline gr | Anaer choline gr early
CCOC(=O)c1c(C)[nH]c(CCC(=O)Nc2cc(-c3cccc(Cl)c3)no2)c1C | i | -0.86
CCC(C)NC(=O)CSc1nnc2c3ccccc3nc(-c3ccccc3)n12 (stereo not given) | i | 0.45
C=CCNC(=O)CN1c2ccc(Br)cc2-c2ccccc2S1(=O)=O | i | 0.57
CCN(CC)C(CNS(=O)(=O)c1ccc(Cl)cc1)c1ccccc1 (stereo not given) | i | -1.3
Cc1ccc2nc(-c3ccccc3NC(=O)c3ccc(F)cc3)ccc2c1 | i | 0.73
Nc1nonc1C(=O)N1CCCN(S(=O)(=O)c2ccc(F)c(Cl)c2)CC1 | i | -0.25
CCSc1nnc(NC(=O)CN(C)S(=O)(=O)c2cc3c(cc2C)NC(=O)C(C)O3)s1 (stereo not given) | i | -0.15
CCc1ccc(CNC(=O)CCCN2C(=O)CCn3nc(-c4cccn4C)cc32)cc1 | i | -0.88
CCC(C)NC(=O)CCc1nc(-c2nn(-c3ccccc3)c(=O)n(CC)c2=O)no1 (stereo not given) | i | -1.1
O=C(NCc1ccccc1)C(=O)NCC(c1cccnc1)N1CCc2ccccc2C1 (stereo not given) | i | 0.1
CC(C)CNC(=O)C(=O)NCc1n[nH]c(=O)c2ccccc12 | i | 0.11
O=C(Cc1csc(NC(=O)C2CC2)n1)NC1CCCC1 | i | -0.76
COc1ccc(OC)c(NC(=O)CN(C)S(=O)(=O)c2cc3c(cc2C)NC(=O)CO3)c1 | i | -1.1
CC12CN3CC(C)(CN(C1)C3c1ccccc1O)C2=O (stereo not given) | i | 0.47
Cc1cc(OCc2nc(C)c(C(=O)Nc3nnc(C(C)C)s3)s2)ccc1Cl | i | 0.48

canonical_smiles | Anaer choline gr | Anaer choline gr early
O=C(CCN1C(=O)c2ccccc2C1=O)N1CCN(Cc2noc(-c3ccccc3)n2)CC1 | i | 0.87
O=C1CC(c2cccc(Cl)c2)=Nc2ccccc2N1 | i | 1.8
CCCc1nn2c(=O)cc(CN(C)C3CCCCC3)nc2s1 | i | -1.9
Cc1cc(N2CCOCC2)nc(N2CCN(C(=O)COc3ccccc3)CC2)n1 | i | -0.04
CCc1ccc(CNC(=O)C2CCCN(S(=O)(=O)N3CCOCC3)C2)cc1 (stereo not given) | i | 0.04
CCS(=O)(=O)c1ccc(OCc2cc(=O)n3oc(C)cc3n2)c(NC(=O)COc2ccccc2F)c1 | i | 0.47
CC(=O)N1c2ccc(S(=O)(=O)NC(Cc3ccccc3)C(=O)N3CCC(C)CC3)cc2CC1C (stereo not given) | i | -0.63
O=C(Cn1cnc2nc(N3CCC(C(=O)NC4CC4)CC3)sc2c1=O)NCC1CCCO1 (stereo not given) | i | 0.19
Cc1noc2c1C(C(C)C)C1=C(CC(c3ccc(Cl)cc3)CC1=O)N2 (stereo not given) | i | 0.16
CC1CCCCN1Cc1nc(-c2ccc(N3CCSCC3)nc2)no1 (stereo not given) | i | -1.6
CCOc1ccc(NC(=O)Nc2ccccc2Sc2ccc3nncn3n2)cc1 | i | 0.22
Cc1ccccc1NC(=O)Nc1cc2sccc2n1C | i | -2.4
O=C(CSc1nnc2n(Cc3cccs3)c(=O)c3sccc3n12)NCc1ccco1 | i | -0.07
COc1ccc(N2C(=O)CCS2(=O)=O)cc1S(=O)(=O)NCCC1=CCCCC1 | i | -0.83
Cc1ccc(C(=O)O)cc1NS(=O)(=O)c1ccc2c(c1)CCN2C(=O)CCC(=O)O | i | -1.4

canonical_smiles | Anaer choline gr | Anaer choline gr early
NCCCCCC(=O)O | i | 0.02&0.03
O=S(=O)(NCCn1c(-c2ccncc2)nc2cccnc21)c1ccc(Br)cc1 | i | -0.68
COCCNC(=O)N1CCCn2nc(-c3cccnc3)cc2C1 | i | 0.15
COc1ccc(C(=O)Cn2c(=O)n3nc(-c4ccccc4)nc3c3cc(OC)c(OC)cc32)cc1OC | i | -0.75
O=C(c1cnn2c(C(F)(F)F)cc(-c3ccc(Br)cc3)nc12)N1CCCCC1 | i | -0.13

# Bioassay records: PubChem, ICCB-Longwood Screening Facility, Harvard Medical School
